GIRK2 act – activators of human GIRK2 potassium channels; 0.05% of 63,000 active; AID 1259325, 2017; HEK293-GIRK2 thallium flux, Thallos fluorescence; calls only for hits at 25 µM; G protein-activated inward rectifier potassium channel 2 (Homo sapiens), P48051;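 active means among the strongest 0.2% of first-round signals and kept after retests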;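 further: first round at about 10 µM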
Target sequence (P48051 whole entry, looked up): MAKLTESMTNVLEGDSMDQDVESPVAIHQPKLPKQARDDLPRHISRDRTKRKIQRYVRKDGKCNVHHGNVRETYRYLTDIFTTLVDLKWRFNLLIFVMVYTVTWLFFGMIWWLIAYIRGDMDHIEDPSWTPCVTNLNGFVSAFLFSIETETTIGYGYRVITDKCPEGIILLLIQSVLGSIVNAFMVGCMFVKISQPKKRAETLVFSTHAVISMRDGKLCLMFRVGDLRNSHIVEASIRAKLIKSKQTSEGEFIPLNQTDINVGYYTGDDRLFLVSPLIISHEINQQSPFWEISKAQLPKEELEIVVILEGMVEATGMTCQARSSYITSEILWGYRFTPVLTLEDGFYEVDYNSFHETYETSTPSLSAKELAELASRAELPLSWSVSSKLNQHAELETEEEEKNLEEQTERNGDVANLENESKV
Calls only; i = inactive.

No.	Compound	GIRK2 act
1	Cc1noc(NS(=O)(=O)c2ccc(NC(=O)CCCOc3ccccc3)cc2)c1C	i
2	CCN(CC)Cc1sc(NC(=O)c2ccccc2)nc1-c1ccccc1	i
3	Cn1c(C2CCN(S(C)(=O)=O)CC2)nn(CC(=O)N2CCOCC2)c1=O	i
4	O=S(=O)(c1ccccc1Cl)N(CCc1cccs1)Cc1ccoc1	i
5	COc1ccccc1CNC(=O)C1CCCN(c2nc3c(-c4ccccc4)csc3c(=O)[nH]2)C1 (centres undefined)	i
6	O=C(NCCCS(=O)(=O)N1CCN(c2ccccc2F)CC1)c1ccccc1Cl	i
7	COc1ccc(/C=C/C(=O)N2CC(c3nc(-c4cccc(Cl)c4)no3)C2)cc1OC	i
8	COc1ccc(CNC(=O)N2CCN(CC(O)c3ccco3)CC2)cc1 (centres undefined)	i
9	Cc1oc(-c2cccc(Cl)c2)nc1CSc1nc2ccccc2c(=O)n1C	i
10	CC(C)(CCl)C(=O)Nc1cc(C2CC2)nn1-c1nc2c(c(=O)[nH]1)CCC2	i

Given with values ahead of the structure: part of the list above
cpd	GIRK2 act	Molecule
5	i	COc1ccccc1CNC(=O)C1CCCN(c2nc3c(-c4ccccc4)csc3c(=O)[nH]2)C1 (centres undefined)
6	i	O=C(NCCCS(=O)(=O)N1CCN(c2ccccc2F)CC1)c1ccccc1Cl
7	i	COc1ccc(/C=C/C(=O)N2CC(c3nc(-c4cccc(Cl)c4)no3)C2)cc1OC
8	i	COc1ccc(CNC(=O)N2CCN(CC(O)c3ccco3)CC2)cc1 (centres undefined)
9	i	Cc1oc(-c2cccc(Cl)c2)nc1CSc1nc2ccccc2c(=O)n1C

Further entries follow:
No.	Compound	GIRK2 act
11	CC(=O)N1CCN(c2cc(-n3cccc3)ncn2)CC1	i
12	CCCCC/C=C\C/C=C\C/C=C\CCCCCCC(=O)OC	i
13	CCN(CC)C(=O)c1cnc2nc(C)ccc2c1Nc1cccc(NC(C)=O)c1	i
14	O=C(O)c1ccc2nc(-c3ccccc3)c(-c3ccccc3)nc2c1	i
15	O=C(/C=C/c1ccccc1)Nc1ccc(-n2nnn(CC(=O)N3CCOCC3)c2=O)cc1	i
16	CCSc1nnc(NC(=O)c2csc(Nc3cccnc3)n2)s1	i
17	Cn1nc(C(=O)NC2CC(=O)N(C3CC3)C2)ccc1=O (centres undefined)	i
18	CN(CC(=O)N1CCC(Oc2ccc(C(F)(F)F)cn2)CC1)S(C)(=O)=O	i
19	Cc1nc(NCCNC(=O)Nc2ccc(F)cc2F)cc(-n2ccnc2C)n1	i
20	O=C(NCc1ccc(C(O)c2cccs2)s1)C(=O)Nc1ccc2c(c1)OCCO2 (centres undefined)	i

Results in sequence from the entries so far.
GIRK2 act for nos. 7 to 10: i, i, i, i

The listing continues:
No.	Compound	GIRK2 act
21	CC1=CC(=C2C(=O)NC(=S)NC2=O)C=C(C(F)(F)F)N1CCN1CCOCC1	i
22	Cc1noc(C)c1S(=O)(=O)N(Cc1ccsc1)Cc1ccco1	i
23	CC1CCN(C(CN)c2ccco2)CC1 (centres undefined)	i
24	COc1ccc(C2(C)NC(=O)N(CC(=O)NCCc3ccccc3)C2=O)cc1 (centres undefined)	i
25	CCOC(=O)N1CCN(C(=O)c2cc(-c3cc(OC)ccc3OC)n[nH]2)CC1	i
26	CC(C)(C)C(O)CCNS(=O)(=O)C1CC1 (centres undefined)	i
27	COc1ccc(SCC2CCN(C(=O)c3cccc4ccccc34)CC2)cc1	i
28	CC(=O)c1ccc(N2CCN(C(=O)c3csc(-c4cc5ccccc5n4C)n3)CC2)cc1	i
29	Cc1cc(C)n(CC(=O)Nc2ccc3c(c2)OCO3)c(=O)c1-c1nc(-c2ccccc2)no1	i
30	Cc1nc(C)c(CNS(=O)(=O)c2cc(C(F)(F)F)ccc2Cl)s1	i

More records follow.
No.	Compound	GIRK2 act
31	O=C(NCCN1CCN(c2ccc(F)cc2)CC1)c1ccno1	i
32	O=C(NCCc1ccccc1)C1CCN(c2ccc(-c3ccco3)nn2)CC1	i
33	Cc1cc(C)n(-c2cc(NC(=O)Cc3ccccc3C)ncn2)n1	i
34	Cc1cc2ncn(CC3CCN(C(=O)c4ccccc4Br)CC3)c2cc1C	i
35	O=C(NCCc1ccccc1)c1ccc2c(=O)n(-c3cccc(F)c3)c(N3CCOCC3)nc2c1	i
36	O=C(NCC(O)(c1ccccc1)C1CC1)C(=O)Nc1ccc2c(c1)OCCO2 (centres undefined)	i
37	Cc1ccc2nc(C3CN(C(=O)NCc4cccs4)C3)[nH]c2c1	i
38	O=C(Nc1ccc(-c2nc3ccccc3o2)cc1)Nc1cccs1	i
39	CC1(C(=O)O)CCCC2(C)C1CCC13CC(CCC21)C1(CO)OC31 (centres undefined)	i
40	CCOc1c(C)cc(S(=O)(=O)N2CCC3(CC2)OCCCO3)cc1C	i

(more compounds)
No.	Compound	GIRK2 act
41	CC(C)(C)c1noc(C2CC(=O)N(Cc3ccc4c(c3)OCO4)C2)n1 (centres undefined)	i
42	COc1ccccc1C1c2c(oc3cc(C)c(C)cc3c2=O)C(=O)N1CCCN(C)C (centres undefined)	i
43	NC(=O)c1ccccc1OCC#CCNC(=O)Cn1cnc2ccccc2c1=O	i
44	Cc1cc2nn(CC(=O)N3CCCc4ccccc43)c(=O)n2c(Nc2ccc(F)cc2)n1	i
45	CCOC(=O)c1c(NCc2ccc(F)cc2F)c2cc(C)ccc2[nH]c1=O	i
46	Cc1nccn1CCNC(=O)C(=O)Nc1ccc2c(c1)N(S(C)(=O)=O)CCC2	i
47	CCC(=O)Nc1ccc2c(c1)c(=O)n(-c1ccccc1)n2CC(=O)Nc1cccc(C)c1C	i
48	c1ccc(Cn2c(CN3CCN(CCN4CCCC4)CC3)nc3ccccc32)cc1	i
49	Cc1cc2oc3c(c(=O)c2cc1Cl)C(c1ccccc1F)N(CCN(C)C)C3=O (centres undefined)	i
50	O=C(Cn1nc2c(c1NC(=O)CCc1ccccc1)CSC2)NCc1ccccc1	i

The list continues:
No.	Compound	GIRK2 act
51	O=c1c(NCc2ccc(F)cc2)nccn1-c1ccc(Br)cc1	i
52	COc1ccc2c(c1)CC[C@@H]1[C@@H]2CC[C@]2(C)[C@@H](NCCCCCCN3C(=O)C=CC3=O)CC[C@@H]12	i
53	CN(C)S(=O)(=O)N1CCN(CCn2ccnc2-c2ccccc2)CC1	i
54	O=C1N(c2ccc(Cl)cc2)C2CS(=O)(=O)CC2N1c1cccc(C(F)(F)F)c1 (centres undefined)	i
55	N#Cc1ccc(NC(=O)/C=C/c2ccccc2)cc1	i
56	COc1ccc(S(=O)(=O)Nc2cccc(-c3cnc4n3CCC4)c2)cc1C	i
57	COc1ccc(NC(=O)C23CCC(C)(C(=O)C2Br)C3(C)C)c(OC)c1 (centres undefined)	i
58	CCCCOc1ccccc1C1C(C(N)=O)=C(C)Nc2ncnn21 (centres undefined)	i
59	CSCC(C)(O)CNC(=O)C(=O)NCC1CCCO1 (centres undefined)	i
60	Cc1ccc(Cl)cc1N1CCN(C(=O)c2cn(CC(O)c3ccccc3)nn2)CC1 (centres undefined)	i

Further results follow:
No.	Compound	GIRK2 act
61	CCCC(=O)N1CCN(Cc2nnnn2-c2ccccc2)CC1	i
62	CCc1nnc(C2CCN(C(=O)c3ccc(F)c(F)c3)CC2)s1	i
63	O=C(Cn1cnc2c(c1=O)CN(Cc1ccccc1)CC2)NCCCc1ccccc1	i
64	O=C1C(=O)N(CCCN2CCOCC2)C(c2ccccc2)C1=C(O)c1ccncc1 (centres undefined)	i
65	COc1cccc(COc2cn(C)c(C(=O)N3CCN(C(C)=O)CC3)cc2=O)c1	i
66	CCOC(=O)CCC(=O)N1CCC(CSc2ccc(OC)cc2)CC1	i
67	CSC1=NCCN1S(=O)(=O)c1ccc(Cl)cc1	i
68	Cc1noc(CNC(=O)c2ccc([N+](=O)[O-])o2)n1	i
69	COc1cc(NC(=O)CSC2=Nc3ccccc3C3=NC(C)C(=O)N23)cc(OC)c1 (centres undefined)	i
70	COc1ccc(Cl)cc1C(=O)N1CCN(c2ncnc3c2nnn3-c2ccc(C)cc2)CC1	i

Following part.
No.	Compound	GIRK2 act
71	Cc1ccc(Cn2c(=O)c3c(nc(Br)n3C)n(C)c2=O)cc1	i
72	Cc1cccc(N2CCN(C(=O)c3ccc4c(=O)n5c(nc4c3)SCC5)CC2)c1C	i
73	Cn1nnnc1SCC(=O)NCC#CCOc1cccc(C(F)(F)F)c1	i
74	CC(Cc1ccco1)NS(=O)(=O)Cc1ccccc1 (centres undefined)	i
75	COc1ccc(-n2nncc2CN2CCN(C(=O)c3n[nH]c4c3CCCC4)CC2)cc1F	i
76	COc1ccc2sc(N(CCN3CCOCC3)C(=O)c3ccc(SC)cc3)nc2c1	i
77	CCOc1ccc(C(=O)Nc2cnc(-n3nc(C)cc3C)nc2)cc1	i
78	COc1cccc(-c2nc(-c3nnn(Cc4ccccc4)c3C)no2)c1	i
79	O=C(Nc1nnc(-c2cccs2)o1)NC(c1ccccc1)c1ccccc1	i
80	O=C(CCc1csc(NC(=O)c2ccco2)n1)Nc1ccc2c(c1)OCCO2	i

Retrieved by compound from the entries so far, 7 records:
No.	Compound	GIRK2 act
75	COc1ccc(-n2nncc2CN2CCN(C(=O)c3n[nH]c4c3CCCC4)CC2)cc1F	i
73	Cn1nnnc1SCC(=O)NCC#CCOc1cccc(C(F)(F)F)c1	i
80	O=C(CCc1csc(NC(=O)c2ccco2)n1)Nc1ccc2c(c1)OCCO2	i
77	CCOc1ccc(C(=O)Nc2cnc(-n3nc(C)cc3C)nc2)cc1	i
79	O=C(Nc1nnc(-c2cccs2)o1)NC(c1ccccc1)c1ccccc1	i
71	Cc1ccc(Cn2c(=O)c3c(nc(Br)n3C)n(C)c2=O)cc1	i
72	Cc1cccc(N2CCN(C(=O)c3ccc4c(=O)n5c(nc4c3)SCC5)CC2)c1C	i

The results go on.
No.	Compound	GIRK2 act
81	O=C(CSc1nnc2scc(-c3ccccc3)n12)Nc1cccc(C(F)(F)F)c1	i
82	CCCCCCCCCC(=O)C[C@@H](CO)COC(=O)CCCCCCCCC	i
83	Cc1ccccc1NCCn1c(C)cn2c3c(=O)[nH]c(=O)n(C)c3nc12	i
84	Fc1ccc(CN2CC(c3nc(Cc4ccccc4)no3)C2)cc1	i
85	COc1ccc(OC)c(C(=O)NCc2sc(-c3ccccc3Cl)nc2C)c1	i
86	COc1ccc(N(C(=O)C(F)(F)F)C2C=CS(=O)(=O)C2)cc1 (centres undefined)	i
87	COc1cc(NC(=O)c2n[nH]nc2Nc2ccc(C)c(C)c2)cc(OC)c1	i
88	Cc1nnc(C2CCCN(C(=O)c3cc4ccccc4oc3=O)C2)s1 (centres undefined)	i
89	Cc1ccc2c(c1)NC(C(=O)Nc1ccc(Oc3ccccc3)cc1)NS2(=O)=O (centres undefined)	i
90	COC(=O)c1c(NCc2cc(OC)ccc2OC)c2ccc(F)cc2[nH]c1=O	i

Later entries:
No.	Compound	GIRK2 act
91	CN(C)S(=O)(=O)NCc1nn(C2CCCC2)c(=O)c2ccccc12	i
92	C=CCc1ccccc1OCC(O)CN1CCCCC1 (centres undefined)	i
93	O=C(/C=C/c1cccs1)N1CCC(c2nnc(-c3ccco3)o2)CC1	i
94	O=C1Nc2ccccc2Oc2ccc(NS(=O)(=O)c3ccc4c(c3)CCCC4)cc21	i
95	O=C(CCc1csc2nc(C3CC3)cn12)Nc1nc(-c2cccnc2)cs1	i
96	Cc1nc(C)c(-c2ccc(=O)n(CCNC(=O)NCc3cccc4ccccc34)n2)s1	i
97	COC(=O)c1ccc(C(=O)N2CCC(S(C)(=O)=O)CC2)cc1	i
98	O=C(NCc1ccc(I)cc1)C1CCN(c2ccc(-c3ccco3)nn2)CC1	i
99	Cn1nc(C2CCN(C(=O)c3ccc(Br)o3)CC2)n(-c2ccccc2)c1=O	i
100	NS(=O)(=O)c1ccc(NC(=O)C2=Cc3ccccc3OC2)cc1	i

Next entries
No.	Compound	GIRK2 act
101	Cc1cccc(C)c1NC(=O)CSc1cc(NCc2ccc(Cl)cc2)ncn1	i
102	O=C(CCSc1ccc2ccccc2n1)NCc1ccc2c(c1)OCO2	i
103	O=S(=O)(CCOc1ccccc1)N1CCN(c2ccccc2Cl)CC1	i
104	Cc1ccc(C(O)CNC(=O)NCCc2ccccc2)o1 (centres undefined)	i
105	Cn1c2ccccc2c(=O)c2c(=O)n(CCc3ccccc3)c(-c3cccs3)nc21	i
106	COC(=O)c1cn(Cc2cccc(C)c2)nc1S(=O)(=O)N(C)c1ccccc1	i
107	O=C(CCn1c(=O)oc2ccc(Cl)cc21)NCCCc1ccccc1	i
108	COc1ccc2nc(OC3CCN(C(=O)c4c[nH]c5ccccc45)CC3)sc2c1	i
109	Cc1[nH]c(=O)n(C)c(=O)c1CCc1nnc(SCC(=O)Nc2ccccc2F)o1	i
110	CCc1ccc(-n2nnc3c(=O)n(Cc4nc(-c5ccc(Br)cc5)no4)cnc32)cc1	i

More entries:
No.	Compound	GIRK2 act
111	O=C(c1ccco1)N1C2CCC1COC2	i
112	Cc1cn2c(CCC(=O)N3CCC4(CC3)OCCO4)csc2n1	i
113	COc1ccc(CNC(=O)N2C3CCC2COC3)cc1	i
114	O=C(CN1C(=O)C2(SCC(=O)N2c2cccc(Cl)c2)c2ccccc21)Nc1ccccc1F (centres undefined)	i
115	O=C(NCCCn1ncccc1=O)c1cc(-c2cccs2)[nH]n1	i
116	COCC(C)(O)CNC(=O)C(=O)NCc1ccc(F)cc1 (centres undefined)	i
117	COC(/C=C/c1c(O)cc2cc(C)oc(=O)c2c1O)C(=O)O (centres undefined)	i
118	COC(=O)c1ccc2c(=O)n(Cc3ccc(C(=O)NCCC4=CCCCC4)cc3)c(=S)[nH]c2c1	i
119	COc1ccc(Cl)cc1NC(=O)CSc1nccnc1N1CCN(c2cccc(C)c2C)CC1	i
120	CC(CCc1ccccc1)NC(=O)C1CCCN(c2cnc3ccccc3n2)C1 (centres undefined)	i

Other records:
No.	Compound	GIRK2 act
121	Cc1cccc(Nc2nc(CC(=O)N3CCN(c4ncccn4)CC3)cs2)n1	i
122	Cc1ccc(C)c(S(=O)(=O)NCC(=O)Nc2nsc(-c3ccccc3)n2)c1	i
123	CCn1c(=O)c2c(nc3n(-c4ccc(OC)cc4)c(C)c(C)n23)n(C)c1=O	i
124	COc1ccccc1N1CCN(c2nccnc2SCC(=O)Nc2ccccc2Cl)CC1	i
125	CCN(CC)C(=O)c1cnc2ccc(F)cc2c1S(=O)(=O)c1cccc(OC)c1	i

High-throughput results deposited in PubChem BioAssay by Vanderbilt University.

This is a subset. The share of hits here may be higher or lower than overall.
